# Assay outcomes as filed in PubChem BioAssay.
# NPYLR7 agonist = activates Aedes aegypti NPYLR7 receptor; 0.15% of 270,000 active; AID 1259423; activation, % at 10 µM; HEK293T NPYLR7/Galpha15, GCaMP6s calcium fluorescence; in the data active = activation above about 40%;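 also: 0% = vehicle and 100% = reference agonist at the receptor; some compounds past the cut are filed as inactive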
# NPYLR7 agonist max-min = second read-out of NPYLR7 agonist, no call of its own (marks repeat the call); activation, %; measured here: Max-Min RFU normalised activation; some inactives read as strong as hits;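 span of the calcium signal over five minutes; 0% = vehicle and 100% = native peptide agonist; compound fluorescence can raise it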
# * hit, by the source's call; & = joins results of further samples. A portion of the library; rates above refer to the full screens.
# Preview, four compounds:
SMILES,NPYLR7 agonist,NPYLR7 agonist max-min
NS(=O)(=O)c1ccc(N=Nc2c(-c3ccccc3)[nH]n(-c3nc(-c4ccccc4)cs3)c2=O)cc1,14,12
Cc1ccc(N2C(=O)CSC2c2cccc(NC(=O)COCc3ccccc3)c2)cc1F (stereo not drawn),16,16
COc1ccc(CN(Cc2nc3cc(C)ccc3o2)C(=O)c2ccco2)cc1,22,28
CCC(C)N(Cc1csc(COc2cccc(Cl)c2)n1)C(=O)COC (stereo not drawn),-19,-17

# All compounds of this part (from the top)
SMILES,NPYLR7 agonist,NPYLR7 agonist max-min
NS(=O)(=O)c1ccc(N=Nc2c(-c3ccccc3)[nH]n(-c3nc(-c4ccccc4)cs3)c2=O)cc1,14,12
Cc1ccc(N2C(=O)CSC2c2cccc(NC(=O)COCc3ccccc3)c2)cc1F (stereo not drawn),16,16
COc1ccc(CN(Cc2nc3cc(C)ccc3o2)C(=O)c2ccco2)cc1,22,28
CCC(C)N(Cc1csc(COc2cccc(Cl)c2)n1)C(=O)COC (stereo not drawn),-19,-17
O=C(Nc1ccc(Br)cc1)C1CCCN1C(=O)C12CC3CC(CC(C3)C1)C2 (stereo not drawn),-6,-8
Cc1cc2c(cc1C(=O)N1CCCC3(CNC(=O)O3)C1)OCCO2 (stereo not drawn),9,2
COCCn1c(C)cn2c3c(=O)n(Cc4c(F)cccc4Cl)c(=O)n(C)c3nc12,1,-2
C#CC(N)CCC(=O)O (stereo not drawn),7,-13
Brc1cc2c(cc1CSc1nnc(-c3ccccc3)o1)OCO2,1,17
CN(Cc1cc(-c2ccccc2)on1)C(=O)c1cn(Cc2cccc3ccccc23)nn1,3,-1
O=C(NCCC(=O)N1CCOC(COCc2ccc(F)cc2Cl)C1)OCc1ccccc1 (stereo not drawn),-6,-11
Cc1ccc(NC(=O)C2=NN(C)C(=O)CC2)c(Br)c1,-7,-7
Cc1c(CN2CCn3nc(C(=O)N4CCCC4)cc3C2)oc2ccccc12,14,6
Cc1cc(C)c(S(=O)(=O)N2CCOC(c3ccccc3)C2)cc1C (stereo not drawn),-8,-8
Clc1ccc(/C=N\Nc2cc(N3CCCCCC3)nc(N3CCCCCC3)n2)cc1,-5,-7
Cc1cc(N2CCCCC2)nc(N2CCCCC2)n1,10,8
Cc1cnc(NC(=O)C(C)Oc2cccc(Cl)c2)s1 (stereo not drawn),1,-1
Cc1cc(CNC(=O)C2CCN(c3ccc4nnc(C(F)(F)F)n4n3)CC2)ccc1F,-2,-10
Cc1ccc(-c2nc(-c3ccc(Br)cc3)no2)cc1,-3,-2
NC(c1ccc(F)cc1)c1ccccc1I (stereo not drawn),14,11
CCn1cccc(-c2nnc(SCC(=O)Nc3nc4ccc(C)cc4s3)n2C)c1=O,4,2
COc1cc(OC)cc(C2SCCN2C(=O)Nc2ccc(SC)cc2)c1 (stereo not drawn),8,3
CCOC(=O)c1ccc(NC(=O)Cn2c(-c3nnc(C(C)C)o3)cc3ccccc32)cc1,0,0
CCSc1nnc(NC(=O)c2ccc(Cl)cc2Cl)s1,4,2
Nc1c(C=C2C=CC(=O)C=C2)c(=O)nc2sc(C34CC5CC(CC(C5)C3)C4)nn12,-1,0
CCc1nc2c(OCc3ccccc3C(=O)OC)cccn2c1N(C)C(C)=O,11,-6
Cn1cc(C(=O)N2CCN(C(=O)c3ccccc3)CC2)c2nn(-c3ccccc3)c(=O)c-2c1,0,-2
O=C1/C(=C/c2ccc(Cl)cc2)C=C(c2ccccc2)N1Cc1ccccc1,-5,-10
Cc1nc2n(n1)C(=O)C(C(c1ccccc1)N1CCN(CCO)CC1)S2 (stereo not drawn),3,0
CC(C)(C)C1CCc2nc(N)ncc2C1 (stereo not drawn),-4,-7

# Quoted from the listing.
# Result of CCn1cccc(-c2nnc(SCC(=O)Nc3nc4ccc(C)cc4s3)n2C)c1=O under NPYLR7 agonist max-min: 2
# Result of CCc1nc2c(OCc3ccccc3C(=O)OC)cccn2c1N(C)C(C)=O under NPYLR7 agonist: 11

# Next structures.
SMILES,NPYLR7 agonist,NPYLR7 agonist max-min
Cc1cc2c(c(=O)o1)C(c1cccs1)C(C#N)C(=N)O2 (stereo not drawn),-12,-18
NC(=Nc1nc2ccccc2s1)C(F)(F)C1(F)OC(F)(F)C(F)(F)C1(F)F (stereo not drawn),5,5
Cc1ccc(C)c(NC(=O)CSc2nc3c(-c4ccccc4)c[nH]c3c(=O)n2C)c1,-2,-6
C=CCN(CC(=O)N1CCc2sccc2C1c1ccccc1C)C(=O)C(Cl)Cl (stereo not drawn),4,2
CCCCc1cnc2c(c1SCC(=O)Nc1cccc(Cl)c1)c(=O)n(C)c(=O)n2C,0,2
Cc1ccn2c(C(=O)N(C)Cc3nc(C4CC4)no3)c(C)nc2c1,2,2
COCCCN(CC(=O)N(CCc1c[nH]c2ccccc12)Cc1ccc(C(F)(F)F)cc1)C(=O)c1ccccc1C,6,14
COc1cccc(OC)c1OCCCOc1ccc(C)cc1Cl,13,5
O=P1(NCC(c2cccs2)N2CCOCC2)C=C(c2ccccc2)OC(c2ccccc2)=C1 (stereo not drawn),-1,-5
CCC(C(=O)N1CCC[C@@H]1C(=O)NCCNC(=O)c1ccc(F)cc1)c1ccccc1 (stereo partly drawn),2,16
CC(NC(=O)c1cc(=O)c2ccccc2o1)c1ccc(F)cc1F (stereo not drawn),-9,-10
C1CCc2nnc(Cc3nnc4n3CCCCC4)n2CC1,4,1
CC(=O)c1cc(F)ccc1OCC(=O)Nc1ccc(F)cc1F,15,10
Cc1nc(C2CCCNC2)cc(N2CCC3(CC2)N=C(N(C)C)NC3=O)n1 (stereo not drawn),-1,-1
Cc1nc(-c2cnn(C)c2)sc1C(=O)NCCCN1CCCCC1,20,13
Cc1cccc(-c2nc3scc(CCNS(=O)(=O)c4ccc5c(c4)OCCO5)n3n2)c1,-7,-8
CCCCc1nnc2sc(-c3cc(C)nc4ccccc34)nn12,-13,-22
COc1cc(NC(=S)N[C@H]2CO[C@H]3[C@@H]2OC[C@@H]3Nc2nccc(C(C)(C)C)n2)cc(OC)c1,-4,-12
CCC(C(=O)Nc1ccc(F)cc1)n1c(=O)n(-c2ccccc2Cl)c(=O)c2ccc(Cl)cc21 (stereo not drawn),-2,-2
CC1=C(C(=O)OC(C)C)C(c2cccc(F)c2)NC(=O)N1c1cc(C)on1 (stereo not drawn),11,10
CCOC(=O)C(=O)N1CCC(Cc2ccc(C(F)(F)F)cc2)CC1,6,3
CC1(C)CC2CC(C)(CN2c2ncnc(N)c2[N+](=O)[O-])C1 (stereo not drawn),0,32
c1coc(CN(CCN2CCOCC2)Cc2ccncc2)c1,6,8
CCCSc1ncccc1C(=O)Nc1ccc(Oc2ccccc2)cc1,-12,-19
COCC(=O)Nc1nc(C)c(-c2ccccc2)s1,1,0
c1ccc(CN2CCOC(CNCc3ccc(-n4cnc5ccccc54)cc3)C2)cc1 (stereo not drawn),3,6
CSCCNC(=O)c1ccc2cccc(Cl)c2n1,-3,-8
c1ccc(N2CCN(c3ccnc(N4CCN(c5ccccc5)CC4)n3)CC2)cc1,0,-2
CS(=O)(=O)Oc1ccc(/C=C2/C(=N)N3N=C(Cc4ccccc4)SC3=NC2=O)cc1,0,-1
CCCCc1ccc(-c2ccc(-n3cncc3C(=O)NC3CCN(Cc4ccccc4)CC3)cc2)cc1,1,-5
COc1ccc(C2c3ccsc3CCN2C(=O)CN(CC(C)C)S(=O)(=O)c2cc(Cl)ccc2Cl)cc1 (stereo not drawn),-1,0
CC(=O)c1cccc(CN2CCCC(C(=O)Nc3ccc(-n4ccnc4C)cc3)C2)c1 (stereo not drawn),9&-5,4&-5
COc1ccc(CCOc2nc(-c3cccc(OC)c3)n(-c3ccc(NC(=O)c4ccc(F)cc4)cc3)n2)cc1,-1,5
CNc1ccc(I)cc1,13,6
CC(c1ccccc1)N1CC(C(=O)OCc2nc(N)nc(Nc3ccccc3)n2)CC1=O (stereo not drawn),4,10
CN(C)CCN(C(=O)c1cc(Br)c[nH]1)C1CCCC1,7,2
Cc1ccccc1C(=O)Nc1cc(C(=O)N2CCCCCC2)cn(C)c1=O,-16,-22
CC1CCCN1C(=O)c1ccc(-c2ccc3c(c2)OCCO3)s1 (stereo not drawn),3,0
COC(=O)CCc1c(C)nn(-c2ccc(C(=O)NC(c3ccccc3)c3ccccc3)cc2)c1C,-10,-12
CN1CCN(C(=O)/C=C/c2ccc(Cl)cc2Cl)CC1,-3,-10

# Next section; the last two above are carried over.
SMILES,NPYLR7 agonist,NPYLR7 agonist max-min
COC(=O)CCc1c(C)nn(-c2ccc(C(=O)NC(c3ccccc3)c3ccccc3)cc2)c1C,-10,-12
CN1CCN(C(=O)/C=C/c2ccc(Cl)cc2Cl)CC1,-3,-10
CN(Cc1ccsc1)C(=O)COC(=O)c1ccc2c(c1)CCC(=O)N2,7,4
Nc1nc2ccccc2n1S(=O)(=O)c1ccc(Cl)cc1,-4,-3
O=C(NCc1nnnn1-c1ccc(F)c(F)c1)c1ccc(Cl)cc1,1,-1
CCCCCNC(=O)CN1C[C@@H]2N(CC(C)C)CCC(=O)N2[C@@H](CCSC)C1=O,0,-1
c1ccc(C2CC(c3ccccc3)n3nnnc3N2)cc1 (stereo not drawn),4,2
Cc1nc(C(=O)NCCC2CCCO2)nn1-c1ccc(F)cc1 (stereo not drawn),-1,-2
CCC(C)C(NC(=O)Nc1ccccc1OC)C(=O)Nc1nnc(-c2ccc(N(C)C)cc2)s1 (stereo not drawn),14,12
CCN(Cc1cnn(C)c1)Cc1occc1C(=O)OC,5,4
CNC(=O)CC1(Cc2ccccc2)C(=O)N(C)c2ccccc21 (stereo not drawn),1,-10
NC(=O)CS(=O)(=O)Cc1ccc(Cl)cc1Cl,3,2

# Quoted at random: six records from the list
SMILES,NPYLR7 agonist,NPYLR7 agonist max-min
CNC(=O)CC1(Cc2ccccc2)C(=O)N(C)c2ccccc21 (stereo not drawn),1,-10
CN(Cc1ccsc1)C(=O)COC(=O)c1ccc2c(c1)CCC(=O)N2,7,4
CCC(C)C(NC(=O)Nc1ccccc1OC)C(=O)Nc1nnc(-c2ccc(N(C)C)cc2)s1 (stereo not drawn),14,12
NC(=O)CS(=O)(=O)Cc1ccc(Cl)cc1Cl,3,2
O=C(NCc1nnnn1-c1ccc(F)c(F)c1)c1ccc(Cl)cc1,1,-1
CCN(Cc1cnn(C)c1)Cc1occc1C(=O)OC,5,4

# Continuation:
SMILES,NPYLR7 agonist,NPYLR7 agonist max-min
NS(=O)(=O)c1cnccc1SCc1ccccc1,9,7
C=CCc1cc(/C=C2\C(=N)N3N=CSC3=NC2=O)cc(OC)c1OS(=O)(=O)c1ccccc1,1,0
Cc1c(N2C(=O)CC3CS(=O)(=O)CC32)c(=O)n(-c2ccccc2)n1C (stereo not drawn),2,1
COc1ccc(CC(=O)Nc2ccc3c(c2)NC(=O)C(C)(C)CO3)cc1,-5,-6
Cc1cc(C)cc(CCC(=O)N2CCN(S(=O)(=O)N3CCCC3)CC2)c1,-2,-4
Cc1ncsc1CCC(=O)NC(C)Cc1cnccn1 (stereo not drawn),15,10
CCC1COC(C)CN1Cc1nc(-c2ccc(OC)cc2)no1 (stereo not drawn),5,4
CCn1ccnc1CN1CCN(CCNS(=O)(=O)c2ccccc2)CC1C (stereo not drawn),2,0
Cc1ccc(OCC(=O)N=Nc2c(O)[nH]c3c(Br)cc(F)cc23)cc1C,10,8
CNC(=O)C1CN(C(=O)c2ccc(-c3ccccc3F)s2)c2ccccc2O1 (stereo not drawn),2,14
CC1S/C(=C/c2nc(-c3ccc(Cl)cc3)cs2)N(CC(=O)N(C)C)C1=O (stereo not drawn),1&4,-3&13
COc1ccc(Nc2ncccc2C(=O)N2CCC(c3ccc(F)cc3)CC2)cc1,-5,-12
COc1cc(OC)cc(C(=O)N2CCC(C(=O)Nc3cccnc3N3CCCC3)CC2)c1,-4,-5
COc1ccc(-c2cc(C(F)(F)F)n3ncc(C(=O)N4CCCCC4)c3n2)cc1,-1,-7
Cc1ccc(Cl)cc1N1CCN(c2nc(-c3cccc(Cl)c3Cl)nc3ccccc23)CC1,5,10
CCOCCCNc1ncnc2c1nnn2CC,12,11
Cc1ccc(N2CCN(S(=O)(=O)c3ccc(F)cc3)CC2)cc1Cl,-2,-9
O=C(CCNS(=O)(=O)c1ccc(F)cc1)N1CCN2C(=O)NCC2C1 (stereo not drawn),2,6
COCc1cc(NCc2cccnc2-n2cnc3ccccc32)ncn1,8,2
COc1cccc(Cc2nsc(N3CCC(CNC(=O)Nc4cccc5ccccc45)CC3)n2)c1,-2,7
O=C(NCc1ccccn1)c1coc(CN(CCc2c[nH]c3ccccc23)Cc2ccccc2Cl)n1,20,12
COc1ccc(C(=O)N(Cc2cccc(OS(=O)(=O)c3ccc(F)cc3)c2)Cc2ccco2)cc1,-9,-12
CC1CCc2c(sc3ncnc(Sc4nnnn4C)c23)C1 (stereo not drawn),-1,11
Cc1cc(-c2cc(=O)[nH]c(-c3ccc(CN4CCN(C)CC4)cc3)n2)c(C)o1,5,2
Cc1ncc(CN2CCCC(CO)(Cc3ccccc3C)C2)s1 (stereo not drawn),1,10
CCCCOc1ccc(C2=N/C(=C\c3ccccc3C(F)(F)F)C(=O)O2)cc1,-3,-7
OC(COCc1ccco1)CN(Cc1cccc(F)c1)CC1CC(c2ccccc2Cl)=NO1 (stereo not drawn),-1,7
COCC(=O)N1CCC2(CC1)NC(=O)c1cc(Cl)ccc1N2,1,12
CCOc1ccc(Oc2coc3cc(OC(C)=O)ccc3c2=O)cc1,7,11
CNC(=O)C(=O)Nc1cc(C)cc(C)c1,17,16
O=C(CN1Cc2ccc(N3CCOCC3)nc2C1=O)NCCCO,-15,-15
CCn1c(CN(Cc2ccccc2)Cc2ccco2)nc2cc(S(=O)(=O)N3CCOCC3)ccc21,4,0
COc1ccc(N2C(=O)CSC2c2ccccc2N)c(OC)c1 (stereo not drawn),-6,-2
CN(C)C(=O)c1ccc(-c2cc3cnc(Nc4ccncn4)cc3n2Cc2ccccc2)cc1,-4,2
Cc1nsc(NC(=O)N(C)Cc2cnc(-c3ccccc3)s2)n1,2,2
Cc1ccc(C(=O)CSc2nnc(NC3CC3)s2)s1,7,11
COc1cccc(Cc2nc(Cc3ccccc3)n[nH]2)c1,0,-2
